High-throughput results as filed in PubChem BioAssay.
HPGD block – qHTS Assay for Inhibitors of HPGD (15-Hydroxyprostaglandin Dehydrogenase); 15-hydroxyprostaglandin dehydrogenase [NAD(+)] (Homo sapiens), P15428; Potency, µM, inactives show at the top dose activity change, negative = inhibition, most hits filed as inhibitors; purified HPGD, NADH fluorescence kinetic, PGE2 substrate; 150,000 compounds, 4.3% hits; active = well fitted inhibition curve with a large enough effect (not every such curve was filed as active); inconclusive = small, poorly fitted or top-dose-only effect, or another doubt; inactive = no such curve, though single readings can be large or run the other way;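 also: top concentration of the series not given in the record; plate controls included wells without enzyme; inactives centre near -10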
Target sequence (P15428 whole entry, looked up): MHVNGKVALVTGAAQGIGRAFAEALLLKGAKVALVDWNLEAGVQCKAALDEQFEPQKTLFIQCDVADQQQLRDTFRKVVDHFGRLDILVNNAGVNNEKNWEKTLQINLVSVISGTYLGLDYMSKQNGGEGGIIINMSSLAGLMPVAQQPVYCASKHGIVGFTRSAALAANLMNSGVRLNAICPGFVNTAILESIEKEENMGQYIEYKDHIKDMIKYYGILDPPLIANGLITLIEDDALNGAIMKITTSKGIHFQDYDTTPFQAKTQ
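NADH formation kinetics: reaction with 30 uM PGE2 and 1 mM NAD+ (final), 20 nM enzyme, Tris-HCl pH 8 with Tween 20, after 15 min compound preincubation at room temperature. Fluorescence change, last versus first of five reads.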
* hit, by the source's call; u = inconclusive; & = joins results of further samples; ! = repeats disagree. % is scaled to controls: 0 for no effect and ±100 for the full control effect; potency is read from the fitted curve at half-maximal effect.

SMILES | HPGD block
COC(=O)C1C/C(=N\NS(=O)(=O)c2ccc(C)cc2)c2sccc2C1 (stereo unspecified) | -18%
O=C(CSc1nc2c(sc3ccccc32)c(=O)n1CCCN1CCOCC1)NC1CCCC1 | -28%
CC(C)NC(=O)CSc1nnc(-c2ccncc2)n1-c1ccccc1 | -9%
Cc1ccc(C(=O)OCC(=O)c2c[nH]c3ccccc23)cc1S(=O)(=O)N1CCCCC1 | -9%
COc1cccc(CNC(=O)C2CCN(c3cnccn3)CC2)c1 | -10%
O=C(OCC(F)(F)F)[C@H](O)[C@@H](O)C(=O)OCC(F)(F)F | -5%
CCCCCCCCCCCCOS(=O)(=O)O | -2%
COc1ccc(Nc2nc3ccc(C)cc3cc2C#N)c(OC)c1 | -13%
COc1ccc(-c2noc(CCC(=O)N3CCN(c4cccc(C(F)(F)F)c4)CC3)n2)cc1 | -13%
C=CCNC(=S)NNC(=O)C(CCCC)CC(C)(C)O (stereo unspecified) | u
CCN(CC)S(=O)(=O)c1cccc2cc(C(=O)O)c(O)cc12 | -4%
CC1Cc2cc(/C(O)=C3/C(=O)C(=O)N(CCCn4ccnc4)C3c3ccco3)ccc2O1 (stereo unspecified) | -8%
O=c1oc(-c2ccccc2)nc2sc3c(c12)CCCC3 | u
O=C(Nc1ccccn1)Nc1cccs1 | -7%
O=C(Oc1ccc([N+](=O)[O-])cc1)c1ccc(Cl)c(S(=O)(=O)N2CCCCC2)c1 | -22%
C=CCn1c(C)nc2c(c1=O)c1nc3ccccc3nc1n2-c1ccc(C)cc1 | -1%
Cc1cc(C)c(S(=O)(=O)N2CCC(C(=O)NCc3ccc(Cl)cc3Cl)CC2)c(C)c1 | -4%
N=C1CCCN1CC(=O)c1ccc(Br)cc1 | -9%
CCOC(=O)c1[nH]c(C)c(C(=O)OCC)c1C | u
O=C(COc1ccccc1)NC(=S)Nc1ccc2c3c(cccc13)CC2 | -7%

16 structures out of the list, arranged by length of the SMILES, low to high.
SMILES | HPGD block
O=C(Nc1ccccn1)Nc1cccs1 | -7%
CCCCCCCCCCCCOS(=O)(=O)O | -2%
N=C1CCCN1CC(=O)c1ccc(Br)cc1 | -9%
CCOC(=O)c1[nH]c(C)c(C(=O)OCC)c1C | u
C=CCNC(=S)NNC(=O)C(CCCC)CC(C)(C)O (stereo unspecified) | u
O=c1oc(-c2ccccc2)nc2sc3c(c12)CCCC3 | u
COc1cccc(CNC(=O)C2CCN(c3cnccn3)CC2)c1 | -10%
CC(C)NC(=O)CSc1nnc(-c2ccncc2)n1-c1ccccc1 | -9%
CCN(CC)S(=O)(=O)c1cccc2cc(C(=O)O)c(O)cc12 | -4%
O=C(COc1ccccc1)NC(=S)Nc1ccc2c3c(cccc13)CC2 | -7%
COC(=O)C1C/C(=N\NS(=O)(=O)c2ccc(C)cc2)c2sccc2C1 (stereo unspecified) | -18%
C=CCn1c(C)nc2c(c1=O)c1nc3ccccc3nc1n2-c1ccc(C)cc1 | -1%
O=C(CSc1nc2c(sc3ccccc32)c(=O)n1CCCN1CCOCC1)NC1CCCC1 | -28%
Cc1ccc(C(=O)OCC(=O)c2c[nH]c3ccccc23)cc1S(=O)(=O)N1CCCCC1 | -9%
CC1Cc2cc(/C(O)=C3/C(=O)C(=O)N(CCCn4ccnc4)C3c3ccco3)ccc2O1 (stereo unspecified) | -8%
O=C(Oc1ccc([N+](=O)[O-])cc1)c1ccc(Cl)c(S(=O)(=O)N2CCCCC2)c1 | -22%

Next section:
SMILES | HPGD block
COC(=O)c1ccc(C(=O)OC)c(NC(=S)N2CCCCC2C)c1 (stereo unspecified) | u
COc1ccc(-n2c(CSc3nc(C)cc(C)n3)nnc2SCC(=O)Nc2nccs2)cc1 | 1%
Cc1cc(C)c(C(=O)/C=C/c2cccc3ccccc23)c(=O)[nH]1 | -11%
COCCNC(=S)N1CCc2cc(OC)c(OC)cc2C1COc1cc(C)cc(C)c1 (stereo unspecified) | -18%
CCN1CCCC1CNC(=O)C(=O)Nc1ccc(OC)cc1 (stereo unspecified) | -22%
CCC1Oc2ccccc2N(CC(=O)NCCN2C(C)CCCC2C)C1=O (stereo unspecified) | 2%
Cc1cc(=O)oc2cc(OS(C)(=O)=O)ccc12 | -25%
COc1cc(/C=N/NC(=O)c2ccc(N(C)S(=O)(=O)c3ccccc3)cc2)cc(OC)c1OC | -19%
O=C(Nc1ncc2c(n1)CC(c1ccco1)CC2=O)c1ccccc1 (stereo unspecified) | -2%
Cc1ccc(-n2nnc3c(=O)n(CC(=O)c4ccccc4)cnc32)cc1 | -7%
CCC(C)c1ccc(NC(=O)CSc2nncn2N)cc1 (stereo unspecified) | -16%
Cc1cccc(C(=O)c2cccc(C)c2)c1 | -12%
CCC(=O)N1CCN(CCN=CC2=C(O)CC(c3cccs3)CC2=O)CC1 (stereo unspecified) | -3%
CC(C)Sc1cc(N2CCOCC2)nc(-c2ccccc2)n1 | -5%
O=C1CC(NCc2ccncc2)C(=O)N1c1ccc(Cl)cc1 (stereo unspecified) | -5%
Oc1cccc(/C=N/Nc2ncnc3c2ncn3Cc2ccccc2)c1 | 22µM*
Cc1ccc(-c2cc(C(=O)O)n[nH]2)o1 | -5%
COc1ccc(CCc2nc(C)ccc2O)cc1 | u
COC(=O)C1=C(C(=O)OC)[C@@H]2N(Cc3ccccc3)c3ccccc3[C@@]23C[C@@H](C(=O)OC)N(S(=O)(=O)c2ccc(C)cc2)C3=N1 | -7%
Cn1c(SCC(=O)NCCNC(=O)CSc2nnc(C(F)(F)F)n2C)nnc1C(F)(F)F | -5%
CC(=O)Oc1cc2oc(=O)cc(C)c2cc1OC(C)=O | u
Cc1cc(C)cc(CSCC(=O)NN=C2CCCCCC2)c1 | -7%
COc1ccc(C(=O)O/N=C(\N)Cc2ccc(Cl)c(Cl)c2)cc1OC | -19%
Cc1ccccc1C(OCC(O)CN1CCCCC1CCO)c1ccccc1 (stereo unspecified) | -8%
Cn1cnnc1SCC(=O)N(Cc1ccc2c(c1)OCO2)C1(C(=O)NC2CCCCC2)CCCC1 | -12%
O=[N+]([O-])c1cc(/C=N/O)ccc1Sc1ccccc1 | 25µM*
CCN(CC)S(=O)(=O)c1ccc(N2CCOCC2)c(NC(=O)c2cc(C)cc(C)c2)c1 | -5%
CCOCCCNC(=O)C1CC(=O)N(C2CCCC2)C1 (stereo unspecified) | -12%
CC(=O)Nc1nnc(-c2ccccn2)o1 | u
Cn1c(Cn2nnc3ccccc32)nnc1SCC(=O)NCc1ccc2c(c1)OCO2 | -11%
COc1cc2cc(CN(Cc3cccs3)C(=S)Nc3ccc(C)cc3)c(=O)[nH]c2cc1OC | u
COC(=O)C1=C(C)OC(N)=C(C#N)C1c1ccc(OC)c(OC)c1OC (stereo unspecified) | -8%
COc1cc(/C=N/NC(=O)c2cccnc2)ccc1OCC(=O)Nc1c(C)cc(C)cc1C | -15%
CCCNC(=O)C(NS(=O)(=O)c1ccc2c(c1)c(=O)n(C)c(=O)n2C)c1ccccc1 (stereo unspecified) | -10%
O=S(=O)(Nc1ccc(Cc2ccncc2)cc1)N1CCCC1 | 25µM*
COc1ccc(CNC(=O)[C@H](C)[C@@H]2C[C@@]2(C)[C@@H](NC(=O)OCc2ccccc2)c2ccccc2)cc1OC | u
COC(=O)C1CC(=O)N(CCc2c[nH]c3ccccc23)C1 (stereo unspecified) | u
CC1(C)CC(=O)C(=C2SCCCS2)C(=O)C1 | -11%
O=C(Cn1cnc2ccccc21)N/N=C/c1ccccn1 | 1%
NC(=O)c1cccnc1Sc1ccc(Cl)cc1 | 5%
O=C(NC1CCCCC1)c1cc2nc(-c3ccco3)cc(C(F)(F)F)n2n1 | u
O=C(Nc1ccccc1C(=O)O)c1ccc(NC(=O)c2ccc(Br)o2)cc1 | 18µM*
CCC(C)C(NC(=O)c1ccccc1NC(=O)c1ccco1)C(=O)NNC(=O)c1ccc(OC)cc1 (stereo unspecified) | -18%
COc1ccc(-n2nnnc2SCC(=O)Nc2nc3c(s2)CCCC3)cc1 | -11%
Nc1ncc(Br)cc1S(=O)(=O)NCCC(=O)Nc1cccc(Cl)c1 | -6%
CC(c1cccnc1)N(CCN(C)C)C(=O)Nc1ccc(Cl)cc1 (stereo unspecified) | 1%
O=C1O/C(=C\c2ccccc2)c2ccccc21 | u
O=C(Nc1ccccc1N1CCN(C(=O)c2ccc(Cl)cc2)CC1)c1ccc2c(c1)OCO2 | u
Cc1ccc(S(=O)(=O)N(CC(=O)NCCC2=CCCCC2)Cc2ccccc2)cc1 | -10%
CC1OC(n2cc(F)c(=O)[nH]c2=O)C(O)C1O (stereo unspecified) | -8%
Cc1ccc(S(=O)(=O)Nc2nc3ccccc3nc2N2CCc3ccccc3C2)cc1 | -16%
COc1ccc(N2CCN(C(=O)NC34CC5CC(CC(C5)C3)C4)CC2)cc1 | -11%
Cc1ccc(SCC(=O)c2cc(C)c(OC(=S)N(C)C)c(C)c2)cc1 | -5%
Cn1nc(-c2ccc(Cl)cc2)c2cc(C(=O)NC3CC3)sc21 | -16%
CN(C)c1ccc(/C=C(\C#N)c2ccccn2)cc1 | -22%
Cc1cccc(NC(=S)N2CCCCCC2)c1 | 3%
COc1ccccc1Nc1nnc(C)c(=O)[nH]1 | -11%
COc1ccccc1N1CCN(C(=O)CN(Cc2ccc(Cl)cc2)S(C)(=O)=O)CC1 | -13%
Cc1cc(C(C)(C)CC(C)(C)C)ccc1OCCOCC[N+](C)(C)Cc1ccccc1 | -4%&-2%
CC(=O)c1cc(NC(=O)c2ccccc2)c(=O)oc1/C=C/N(C)C | -18%

The results go on:
SMILES | HPGD block
COc1ccc(OCc2nnc(SCC(=O)O)n2N)cc1 | -9%
CCOc1ccc(NC(=O)CSc2ncnc3c2sc2ccccc23)cc1 | -9%
N#Cc1cccc(C(c2nnnn2C2CCCC2)N2CCC(Cc3ccccc3)CC2)c1 (stereo unspecified) | -13%
Cc1nnc(SCc2ccccc2F)n1NCc1cccs1 | 32µM*
COc1ccccc1/C=N/NC(=O)c1cccc(OC(F)(F)C(F)F)c1 | -10%
CSc1ccc(/C=N/NC(=O)CNc2ccc3ccccc3c2)cc1 | -12%
Cc1cccc(C)c1-n1nnnc1S(=O)(=O)Cc1ccccc1Cl | -18%
Cc1nc2c(cc(Oc3ccc(S(=O)(=O)N4CCOCC4)cn3)c3ccsc32)s1 | -18%
CN(c1cccc(NC(=O)CSc2ccc(Cl)cc2)c1)S(C)(=O)=O | -23%
Cc1cc2c(C)nc(Cc3ccccc3)nc2o1 | -30%
CCCOc1ccc(/C=N/NC(=S)Nc2ccccc2[N+](=O)[O-])c(O)c1 | -17%
c1csc(CN2CCN(Cc3cccs3)C2c2cccs2)c1 | -1%
COC(=O)N/N=C/c1ccc(OCCSc2ccc(Cl)cc2)c(OC)c1 | u
O=C(CSc1nc2cc(Cl)ccc2s1)N1CCN(C(=O)c2ccco2)CC1 | -15%
CCN(C(=O)c1cccc(F)c1)c1ccccc1C | -3%
COC(=O)c1c(C)c2c(c(C)c1O)OC(=O)c1c(C)c(Cl)c(O)c(Cl)c1O2 | 7.1µM*!
COCCCNC(=S)NNC(=O)c1csc2ccccc12 | -16%
CCCCn1c(SCn2nnc3ccccc3c2=O)nc2cc(S(N)(=O)=O)ccc21 | -10%
CCOC(=O)C1CCCN(C(=S)Nc2cccc(Cl)c2C)C1 (stereo unspecified) | -3%
Cc1ccc(C)c(NC(=O)Cn2nnc(C(=O)NCc3cccs3)c2N)c1 | -4%
Cc1cccc(NC(c2ccc(C)s2)c2ccc3ccc(C)nc3c2O)n1 (stereo unspecified) | -19%
Cc1ccc(S(=O)(=O)N2CCC(C(=O)NCc3ccncc3)CC2)cc1 | -8%
CCCCOc1ccc(CC(=O)NCC(=O)O)cc1 | -22%

Not all compounds are listed; the hit share may differ from the screen's.
